# Compound activity: PubChem BioAssay, ICCB-Longwood Screening Facility, Harvard Medical School
# GIV Gai3 FP: GIV-Galpha-i interaction inhibition; P08753; Galpha-i3/FITC-GIV peptide fluorescence polarization, 90 min; hits give low values; scaled: aluminum fluoride 0%, vehicle 100%; percent of control (FP), % (no concentration beside the values); 210,000 tested, 0.42% active; AID 1224905;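 active = replicate mean at 85% of control or lower, very high polarization wells dropped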;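 note: wells of about 15 µL received 100 nL stock; the first replicate is given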
# Target sequence (P08753 whole entry, looked up): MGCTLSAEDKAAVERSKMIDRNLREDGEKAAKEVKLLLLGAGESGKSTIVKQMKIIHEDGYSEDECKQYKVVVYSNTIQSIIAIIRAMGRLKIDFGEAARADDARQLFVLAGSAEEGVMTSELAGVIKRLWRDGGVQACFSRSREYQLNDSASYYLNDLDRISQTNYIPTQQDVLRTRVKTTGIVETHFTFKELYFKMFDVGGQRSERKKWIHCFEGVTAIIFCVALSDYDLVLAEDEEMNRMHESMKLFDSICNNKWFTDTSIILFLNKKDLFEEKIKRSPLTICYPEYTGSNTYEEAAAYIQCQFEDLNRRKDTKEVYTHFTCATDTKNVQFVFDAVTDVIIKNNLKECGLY
# * hit, by the source's call. The list is partial; count on the stated rates, not on these rows.
SMILES,GIV Gai3 FP
COc1ccc(CCNC(=O)c2ccc3c(c2)nc(C)n3-c2cc(OC)c(OC)c(OC)c2)cc1OC,117
Cc1csc(C2CCCN(C(=O)C3CCOC3)C2)n1 (centres undefined),101
c1ccc(Oc2ccc(-c3[nH]c(-c4cccc5ccccc45)nc3-c3ccccc3)cc2)cc1,105
COc1cccc(C(=O)N2c3ccccc3Sc3ccccc32)c1,112
O=C1C2C3C=C(Cl)C(c4ccccc43)C2C(=O)N1c1cccc(Br)c1 (centres undefined),109
Cc1cc(C)c(S(=O)(=O)Nc2cnc(N3CCNCC3)c(C(=O)N3CCCCC3C)c2)c(C)c1 (centres undefined),100
CCOc1cc(C2C(C(=O)OCC3CCCO3)=C(C)NC3=C2C(=O)CC(c2cccs2)C3)cc([N+](=O)[O-])c1O (centres undefined),113
CC(=O)c1ccc(N2CCN(c3ncnc4c3cnn4-c3cccc(C)c3)CC2)cc1,120
Cc1csc2nc(CN(Cc3ccc(C(C)C)cc3)CC(C)C)cc(=O)n12,105
Cc1csc(-c2cc(S(=O)(=O)NCCN3CCOCC3)cn2CC(=O)N2CCCCC2)n1,101
CCOc1cccc2c1OC(c1cccc(OC)c1OC)N1N=C(c3cccnc3)CC21 (centres undefined),107
CC1CCN(c2nc(Cl)nc(Nc3ccc4c(c3)OCO4)n2)CC1,99
Cn1nc(C(=O)N2CCCC(C(=O)NC3CC3)C2)c2c1CCN(C(=O)c1ccccc1Cl)C2 (centres undefined),98
CCn1c(=O)n(CC(=O)N2CCC(C(N)=O)(N3CCCCC3)CC2)c(=O)c2ccccc21,110
Cc1ccccc1NC(=O)c1ccc(F)c(S(=O)(=O)NC2CCCCCC2)c1,111
Cc1ccc(-c2cc(C(=O)N3CCc4ccccc4C3)c(C)[nH]2)cc1,99
CC1(C)CC(=O)C2=C(C1)OC1=C(C(=O)CC(C)(C)C1)C2c1ccc(C#Cc2ccccc2)cc1,104
CCOc1c(C(=O)OC)sc2ccc(NC(=O)Nc3cc(Cl)ccc3OC)cc12,102
CC1(C)COC2(OC1)C(=O)N(CN1CCc3ccccc3C1)c1ccccc12,105
COC(=O)c1cccc(C(=O)Nc2cccc(OC)c2)n1,109
CCCN1CCN(C(=O)CCc2c(C)nn(-c3ccc4nnc(C)n4n3)c2C)CC1,96
Cc1nn2c(S(=O)(=O)N3CCOCC3)c(C)nc2s1,100
Nc1c(C(=O)Nc2ccccc2)sc2nc3c(c(-c4ccco4)c12)CCCC3,113
CC1(C)CC(=O)C2=C(C1)Nc1ccc3ccccc3c1C2c1ccc(F)cc1 (centres undefined),105
CN(Cc1ccccc1)C(=O)CSc1nc2cc(C(=O)NCc3ccco3)ccc2c(=O)n1-c1ccc(F)cc1,105
COc1ccc(Br)cc1/C=C1/N=C(c2cc([N+](=O)[O-])ccc2OC)OC1=O,109
C=CCOc1ccc(C2C(C(=O)OCC)=C(C)NC3=C2C(=O)c2ccccc23)cc1Cl (centres undefined),107
CC(=O)Nc1nc(N2CCC(C(=O)NCc3cccnc3)CC2)sc1C(=O)N1CCCC1,101
Cn1c(=O)c2nc(SCCC(=O)Nc3ccc(F)cc3)n(C)c2n(C)c1=O,105
Cc1cc(C)nc(NS(=O)(=O)c2ccc(NC(=O)c3sc4nc5c(cc4c3N)CCC5)cc2)n1,101
Cc1nnc(-c2cc3ccccc3c3c2OC2(C=N3)N(C)c3ccccc3C2(C)C)o1 (centres undefined),112
Cc1cccc(C)c1NC(=O)c1cc(S(=O)(=O)N2CCN(Cc3ccc4c(c3)OCO4)CC2)ccc1F,103
CC(C)(C)c1nnc2sc(SCC(=O)Nc3nccs3)nn2c1=O,101
COc1ccc(OC)c(Nc2nc(-c3cc4ccccc4oc3=O)cs2)c1,103
COc1cccc(Oc2ccnc(-c3cccc(C(=O)NC4CCCCC4)c3)n2)c1,106
CC1SC(c2ccc(Cl)cc2)N(Nc2nc(N3CCOCC3)nc(N3CCOCC3)n2)C1=O (centres undefined),103
COC(OC)C12c3ccccc3C(c3ccccc31)C1C(=O)N(CCc3ccccc3)C(=O)C12 (centres undefined),121
CCCCOc1ccc(CN2CCCC2c2cc(C(C)C)on2)cc1 (centres undefined),101
O=C(Cc1c(F)cccc1Cl)NCC(=O)N1CCN(c2ccccc2)CC1,111
CCOC(=O)C(=O)N1c2ccc(C)cc2-c2c(ssc2=S)C1(C)C,119
CCOC(=O)C1=CS/C(=C2/C(=S)C(C)(C)Nc3cc(C)ccc32)S1,103
Cc1ccc([N+](=O)[O-])cc1NC(=O)c1cc(S(=O)(=O)Nc2cccc(C(=O)O)c2)c(Cl)cc1Cl,99
Cc1ccc(S(=O)(=O)Nc2ccc3oc4c(c3c2)CCCC4)cc1,121
CCOC(=O)N1CC=C2C(C#N)=C(N)C(C#N)(C#N)C(c3ccc(OC)c(OC)c3)C2C1 (centres undefined),125
O=c1/c(=C/c2ccco2)sc2nc(-c3ccc(Cl)cc3)nn12,119
Cc1ccc(-n2nnnc2C(C)(C)N)cc1,106
COc1ccc(-c2nnc(SCc3nc4ccccc4[nH]3)n2-c2ccccc2)cc1OC,108
CCOC(=O)C1=C(N)n2c(s/c(=C/c3ccc4c(c3)OCO4)c2=O)=C(C(=O)OCC)C1c1ccc2c(c1)OCO2 (centres undefined),104
COc1ccc(C)cc1NC(=O)c1sc2ncn(CC(=O)Nc3cccc(C(F)(F)F)c3)c(=O)c2c1C,102
CCSc1nnc(NC(=O)CSc2nnc(CNC(=O)c3ccco3)n2-c2ccc(F)cc2)s1,111
Cc1ccc(F)cc1Nc1nnc(-c2cc3c(ccc4ccccc43)oc2=O)s1,112
O=C(CC1CCN(C(=O)c2cc3ccccc3[nH]2)CC1)NC1CC1,103
O=C(NCCc1ccc(Cl)cc1)C1CCCN(c2ncnc3c2oc2ccccc23)C1 (centres undefined),99
CCOc1ccc(NC(=O)C2=C(C)NC(=O)NC2c2ccc(OC)cc2OC)cc1 (centres undefined),98
COc1ccc(C2=N/C(=C\c3ccc(OC(C)=O)c(OC)c3)C(=O)O2)cc1Br,105
COCCNC(=O)CSc1nnc2n(CCC(=O)NC3CCCCC3)c(=O)c3ccccc3n12,103
CC(=O)OC1C(OC(=O)c2ccc(C)cc2)C(COC(=O)c2ccc(C)cc2)OC1n1cc(I)c(=O)[nH]c1=O (centres undefined),109
COc1ccc(N2C(=O)C(N3C(=O)c4c(Cl)c(Cl)c(Cl)c(Cl)c4C3=O)C2c2cccs2)cc1Cl (centres undefined),108
COC(=O)Nc1ccc(S(=O)(=O)N2CCC(C(=O)Nc3cccc(OC)c3)CC2)cc1,109
C=CCn1ccc2c(OCC(=O)NC3CCCC3)cccc2c1=O,98

# Additional compounds follow.
SMILES,GIV Gai3 FP
Cc1cc(C2CCCN2C(=O)c2c(-c3c(F)cccc3Cl)noc2C)no1 (centres undefined),104
O=C(Cn1cnc2c(sc3ncccc32)c1=O)Nc1cccc(Cl)c1,100
COc1ccc(-c2nn(C3CC(=O)C4OCC3O4)c(=S)n2C)cc1 (centres undefined),102
CC1CC(C)CN(C(=O)c2ccc(N3CC4CC(C3)c3cccc(=O)n3C4)c(NC(=O)c3ccc(Br)o3)c2)C1 (centres undefined),106
Cc1cc(C)c(S(=O)(=O)NCc2nc3cccnc3n2C2CC2)cc1C,106
O=C(Nc1ccc(S(=O)(=O)N2CCCCC2c2cccnc2)cc1)c1ccc(Cl)c([N+](=O)[O-])c1 (centres undefined),114
CCC(C)NC(=O)c1cccc(-c2cc(N3CCCC3)ncn2)c1 (centres undefined),102
CN(C)c1cc(OC2CCN(S(=O)(=O)c3ccccc3)C2)ncn1 (centres undefined),102
N#CC1=C(N)N(c2ccc(S(N)(=O)=O)cc2)C2=C(C(=O)CCC2)C1c1ccc2c(c1)OCO2 (centres undefined),110
NNc1nc(Nc2ccc(Br)cc2)nc(N2CCOCC2)n1,109
Cc1ccc(S(=O)(=O)N2CCc3ccccc3C2CN2C(=O)c3ccccc3C2=O)cc1[N+](=O)[O-] (centres undefined),104
Cc1sc(-c2cc(C(F)(F)F)on2)cc1S(=O)(=O)NCc1ccccc1,101
COc1cccc(N/C(SCc2cc(F)ccc2F)=C(/C#N)C(=O)NCc2ccccc2)c1,104
O=C1c2sc3nc4c(c(=O)n3c2C(=O)N1c1ccc(Cl)cc1)CCC4,109
CC(C)c1cc(C2CCCN2C(=O)NC2CCCC2)on1 (centres undefined),100

# The final two compounds of the section before come first, to join the parts:
SMILES,GIV Gai3 FP
O=C1c2sc3nc4c(c(=O)n3c2C(=O)N1c1ccc(Cl)cc1)CCC4,109
CC(C)c1cc(C2CCCN2C(=O)NC2CCCC2)on1 (centres undefined),100
Cc1ccc2cc3c(nc2c1)-c1ccccc1C3,102
Cc1nc(-c2cc(S(=O)(=O)NCCCOC(C)C)c(C)s2)sc1C,104
CC1CCN(S(=O)(=O)c2ccc3c(c2)N(Cc2noc(C4CCC4)n2)C(=O)CO3)CC1,105
COc1ccccc1NC(=O)c1sc2nc(C)nc(N3CCN(c4ccccn4)CC3)c2c1C,101
Cn1cc(CCN2CCN(S(=O)(=O)c3ccc4c(c3)OCCO4)CC2)c2cccnc21,105
Cc1ccc(Nc2ncnc3c2cnn3C)cc1F,102
CCOc1ccccc1NC(=O)CSc1nc(N)c(C#N)cc1C#N,111
O=C(NCc1nnc2n1CCCC2)c1ccc(Br)o1,103
CCN(CC)S(=O)(=O)c1ccc2c(c1)cc(C(=O)N1CCN(c3cccc(C)c3C)CC1)n2C,99
COc1ccc(Cl)cc1S(=O)(=O)N1CSC[C@@H]1C(=O)NCc1csc(C)n1,102
C=CCNC(=O)C(=O)Nc1ccc(Cl)c(C(F)(F)F)c1,110
Cc1nc(N2CCN(c3ccccn3)CC2)c2c(C)c(C(=O)Nc3ccc(Cl)cn3)sc2n1,99
COC(=O)c1cc(NC(=O)C2CCCN(S(=O)(=O)Cc3ccc(F)cc3)C2)ccc1Cl (centres undefined),99
CN(C)c1ccc(/C=C(\NC(=O)c2ccccc2)C(=O)NCCCn2ccnc2)cc1,129
CCCOc1ccc(NC(=O)C2CC(=O)N(CC)C(=Nc3ccc(F)cc3)S2)cc1 (centres undefined),105
Cc1ccc(/C(O)=C2\C(=O)C(=O)N(c3ccccn3)C2c2ccc(Cl)cc2)cc1 (centres undefined),105
COc1ccc(C2C(C#N)=C(N)N(c3cc([N+](=O)[O-])ccc3C)C3=C2C(=O)CC(C)(C)C3)cc1OC (centres undefined),112
CCCn1c(=O)c(C(=O)Nn2c(Cc3ccccc3)nc3ccccc3c2=O)c(O)c2ccccc21,111
CCOC(=O)CN1C(=O)CSc2ccc(S(=O)(=O)N3CCOCC3)cc21,101
Cc1cc(C)cc(S(=O)(=O)N2CCOc3ccc(COCc4cccc(F)c4)cc3C2)c1,105
O=C1CSC2(C(=O)Nc3ccccc32)N1c1ccc(Br)cc1 (centres undefined),107
CN(C1=NS(=O)(=O)c2ccccc21)c1ccc(OC(=O)C2CC(=O)N(c3ccccc3)C2)cc1 (centres undefined),110
CCCCCOC(=O)C1=C(C)NC2(O)c3ccccc3C(=O)C12O (centres undefined),93
Fc1ccc(-c2nc3cc(C(F)(F)F)cc(Cl)c3nc2-c2ccc(F)cc2)cc1,110
CC(C)CNC(=O)c1cccc(-c2cnc3ccccc3c2)c1,99
C#CCOc1ccc(C2CC(=O)Nc3c2cnn3-c2nc3ccccc3s2)cc1OCC (centres undefined),100
CCN(CC)c1ccc2cc(-c3nc(-c4ccc(Br)cc4)cs3)c(=Nc3ccc(C)cc3)oc2c1,122
O=C(c1cc2cc(Br)ccc2o1)N1CCc2c([nH]c3ccccc23)C1,105
CCCCc1ccc2c(N)c(C(=O)Nc3ccc(C(=O)O)cc3)sc2n1,108
Cc1cc(C2CCCN2Cc2cccnc2)on1 (centres undefined),99
O=C(Nc1nnc2n1CCCS2)C1CCCCC1,98
CC(C)c1cc(C2CCCN2C(=O)c2nn(C)cc2Cl)on1 (centres undefined),97
O=C(Nc1cc(OCC(F)(F)F)cc([N+](=O)[O-])c1)c1cc2ccccc2oc1=O,111
CN1CCN(c2ccc(/C=c3\sc4nc5ccccc5n4c3=O)cc2[N+](=O)[O-])CC1,104
COCCN1C(=O)c2ccccc2Sc2cc(NC(=O)CCC3CCCC3)ccc21,98
COCCNC(=O)N1c2ccccc2NC2=C(C(=O)CC(C)(C)C2)C1c1ccccc1OC (centres undefined),112

# Structures shown so far that contain a thiophene ring, fused or not:
SMILES,GIV Gai3 FP
CCOc1cc(C2C(C(=O)OCC3CCCO3)=C(C)NC3=C2C(=O)CC(c2cccs2)C3)cc([N+](=O)[O-])c1O (centres undefined),113
CCOc1c(C(=O)OC)sc2ccc(NC(=O)Nc3cc(Cl)ccc3OC)cc12,102
Nc1c(C(=O)Nc2ccccc2)sc2nc3c(c(-c4ccco4)c12)CCCC3,113
Cc1cc(C)nc(NS(=O)(=O)c2ccc(NC(=O)c3sc4nc5c(cc4c3N)CCC5)cc2)n1,101
COc1ccc(C)cc1NC(=O)c1sc2ncn(CC(=O)Nc3cccc(C(F)(F)F)c3)c(=O)c2c1C,102
COc1ccc(N2C(=O)C(N3C(=O)c4c(Cl)c(Cl)c(Cl)c(Cl)c4C3=O)C2c2cccs2)cc1Cl (centres undefined),108
O=C(Cn1cnc2c(sc3ncccc32)c1=O)Nc1cccc(Cl)c1,100
Cc1sc(-c2cc(C(F)(F)F)on2)cc1S(=O)(=O)NCc1ccccc1,101
Cc1nc(-c2cc(S(=O)(=O)NCCCOC(C)C)c(C)s2)sc1C,104
COc1ccccc1NC(=O)c1sc2nc(C)nc(N3CCN(c4ccccn4)CC3)c2c1C,101
Cc1nc(N2CCN(c3ccccn3)CC2)c2c(C)c(C(=O)Nc3ccc(Cl)cn3)sc2n1,99
CCCCc1ccc2c(N)c(C(=O)Nc3ccc(C(=O)O)cc3)sc2n1,108
